ALR inh = inhibitors of human sulfhydryl oxidase ALR; purified ALR, DTT oxidation, H2O2 HRP-luminol luminescence; inhibition, % (test concentration not listed); 3.8% of 290,000 active;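 active = mean and each replicate at 75% or more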;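 note: stock transfer was 7.5 nL into about 7.5 µL; 0% = neutral wells and 100% = wells with inactivated enzyme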
Target sequence (P55789 whole entry, looked up): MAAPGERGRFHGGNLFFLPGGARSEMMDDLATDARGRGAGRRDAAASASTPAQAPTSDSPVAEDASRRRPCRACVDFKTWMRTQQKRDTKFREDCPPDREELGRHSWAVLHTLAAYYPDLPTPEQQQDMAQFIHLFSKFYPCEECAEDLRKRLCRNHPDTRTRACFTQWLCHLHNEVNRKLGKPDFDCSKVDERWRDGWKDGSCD
Ecoli rRNA inh = inhibitors of bacterial rRNA selective over humanized ribosomes; GFP signal change (wild-type ribosome), % (no concentration beside the values); 1.6% of 350,000 active; E. coli WT GFP vs humanized-ribosome RFP mutants, fluorescence, 24 h; hits give low values; DMSO median 0, no signal -100; AID 720706;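 active = significant combined selectivity score with lowered wild-type GFP, culture density cut under 30%, mutant RFP and density less affected; inactive = any of these conditions unmet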; note: one replicate is shown; some compounds called inactive have numbers as strong as hits
UCH37 inh = human UCH37 deubiquitinating enzyme inhibition | Q9Y5K5 | purified proteasome/UCH37, Ub-AMC cleavage fluorescence | inhibition, % (test concentration not listed) | 0.33% of 330,000 active;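 active = mean of two replicates above 20%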;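 note: 0% = compound-free wells with enzyme and 100% = wells lacking proteasome; stock transfer was 100 nL into about 20 µL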
Target sequence (Q9Y5K5 whole entry, looked up): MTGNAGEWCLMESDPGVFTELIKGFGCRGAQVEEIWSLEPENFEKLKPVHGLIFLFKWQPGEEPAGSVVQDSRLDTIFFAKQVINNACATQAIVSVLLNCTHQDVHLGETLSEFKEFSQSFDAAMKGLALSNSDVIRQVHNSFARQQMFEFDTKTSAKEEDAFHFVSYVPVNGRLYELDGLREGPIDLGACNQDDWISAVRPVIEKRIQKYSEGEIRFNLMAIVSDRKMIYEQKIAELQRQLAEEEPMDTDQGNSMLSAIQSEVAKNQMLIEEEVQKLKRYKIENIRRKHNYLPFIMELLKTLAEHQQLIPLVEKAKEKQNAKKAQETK
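Material: human UCH37 enzyme supplied as purified proteasome complex. Measure: % inhibition of Ub-AMC cleavage fluorescence. Medium: pH 7.4 Tris-HCl (50 mM) with ovalbumin, ATP-MgCl2, DTT. Times: 30 min preincubation with enzyme, 25 min cleavage at room temperature. Detection: AMC fluorescence intensity at 355/460 nm.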
FGF22 binding = shifts melting point of recombinant human FGF22; Q9HCT0; recombinant FGF22 thermal shift, SYPRO orange fluorescence; percent of sucrose octasulfate shift, DMSO zero; calls only at 9.99 µM; 1.5% of 340,000 active; AID 651658;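 active = melting point raised past a set limit in the mean and every replicate; three in four hits are not shown here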
HNF4A DNA FP = change in binding of human HNF4 alpha to DNA; AID 1224865; P41235; HNF4a-FITC DNA binding, fluorescence polarization, 1 h; 0.3% of 360,000 active; activity change, % at 10 µM; in the data active = activity change above about 30%, passing the limit was not always enough;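 note: controls were the assay level and a saturating level of protein; the project sought stronger binding though the title names inhibitors; some compounds called inactive have numbers as strong as hits; positive values seem to mean higher polarization but the record does not say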
B2AR ag = agonists of human beta-2 adrenergic receptor inducing internalization. Am2.2-beta2AR cells, FAP receptor internalization, flow cytometry; reference of the scale not given here. response, % (test concentration not listed). 0.43% of 340,000 active;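 active = response above a set limit, near 3 SD of response in nonfluorescent compounds, cut at about 42% in these data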;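 note: stock transfer was 100 nL into about 11 µL; a reference agonist was the positive control; negative values mostly stem from fluorescent compounds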
Target sequence (P07550 whole entry, looked up): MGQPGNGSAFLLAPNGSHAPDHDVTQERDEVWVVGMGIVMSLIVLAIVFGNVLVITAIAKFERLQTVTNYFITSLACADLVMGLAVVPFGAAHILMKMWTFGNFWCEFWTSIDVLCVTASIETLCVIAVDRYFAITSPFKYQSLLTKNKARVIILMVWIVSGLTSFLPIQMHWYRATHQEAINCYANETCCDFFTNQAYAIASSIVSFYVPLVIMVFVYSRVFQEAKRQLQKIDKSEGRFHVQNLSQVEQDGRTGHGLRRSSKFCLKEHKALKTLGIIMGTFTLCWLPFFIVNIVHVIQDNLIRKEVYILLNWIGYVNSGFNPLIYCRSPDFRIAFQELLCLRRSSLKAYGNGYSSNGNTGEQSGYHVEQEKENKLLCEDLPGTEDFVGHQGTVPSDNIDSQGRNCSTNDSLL
E coli growth = E. coli growth inhibition. Escherichia coli growth, OD600, 23 h; hits give low values. 0.21% of 330,000 active. OD600 absorbance (no concentration beside the values);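 active = OD600 absorbance below the run mean of sample wells minus 3.6 SD, in any replicate, cut at about 0.56 in these data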;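 note: stock transfer was 300 nL into about 60 µL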
Ecoli rRNA inh OD600 = recorded beside Ecoli rRNA inh, whose call it bears; OD600 change, %; measured here: OD600 growth;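 optical density of the mix in the first replicate; 0 = DMSO median and -100 = no signal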
Ecoli rRNA inh RFP = also measured in Ecoli rRNA inh; calls as there; RFP signal change, %; measured here: RFP humanized mutant strains;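 first replicate; 0 = DMSO median and -100 = no signal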
An asterisk follows results filed as active; i = inactive; / = not tested or not shown. Not all compounds are listed; the hit share may differ from the screen's.

Structure	ALR inh	Ecoli rRNA inh	Ecoli rRNA inh OD600	Ecoli rRNA inh RFP	UCH37 inh	FGF22 binding	HNF4A DNA FP	B2AR ag	E coli growth
O=C(CN1CCOCC1)Nc1ccccc1NC(=O)C1CCN(c2ncccn2)CC1	-4	/	/	/	-8.1	/	1.1	0	0.75
COC(=O)c1sc(-c2cccs2)cc1NC(=O)/C=C/C(=O)O	98*	-31	-47	0.6	/	i	-1.8	7	/
CCC(C)NC(=O)C1CCN(S(=O)(=O)c2ccc3[nH]c(=O)ccc3c2)CC1 (stereo unspecified)	-1	15	28	6.6	4.7	i	1.1	1	0.79
Cc1ccc(-n2c(O)c(C=Nc3ccccc3-c3n[nH]c(=S)[nH]c3=O)c3ccccc3c2=O)c(C)c1	2	-44	-42	-6.5	0.6	i	-1.3	-16	0.66
CCOC(=O)c1oc2c(C)c(O)ccc2c(=O)c1-c1nncn1-c1ccccc1	-7	/	/	/	5.1	/	0.2	8	0.66
Cc1nn(-c2ccccc2)c2c1C1(C(=O)N(C)c3ccccc31)N(c1ccccc1)C(=O)N2 (stereo unspecified)	4	/	/	/	0.1	/	0.4	-10	0.75
Cc1cc(C(=O)Nc2c(C)nn(Cc3ccccc3Cl)c2C)no1	-5	/	/	/	1.5	/	2.8	-7	0.68
C[C@@H]1CCCCO[C@H](CN(C)Cc2ccc(C(=O)O)cc2)[C@@H](C)CN([C@H](C)CO)C(=O)c2cc(NC(=O)CCC(F)(F)F)ccc2O1	/	-1	2	2.1	/	i	1.2	/	/
O=C(NC(=S)Nc1cccnc1Cl)c1ccco1	1	12	7	-3.0	0.4	i	2.1	-38	0.67
O=C(OCC1COc2ccccc2O1)c1ccccc1F (stereo unspecified)	2	-20*	-15*	0.5*	-1.3	i	-1.2	5	0.66
O=C(Cn1c(CO)nc2ccccc21)NCCc1ccc(F)cc1	/	-19*	-7.5*	1.9*	0.3	i	0.8	-4	0.69
Cc1nc(NC(=O)c2oc3ccccc3c2C)sc1C(=O)N(C)C	7	/	/	/	3.9	/	-1.5	-4	0.67
CCc1ccc(CN2CCC(Oc3ccc(C(=O)N4CCCCC4)cc3)CC2)cc1	-6	7	1	-2.8	0.0	i	-2.2	67*	0.69
COc1ccc(CCCc2nnc(SCC(=O)Nc3nc(C)cs3)n2C)cc1	-6	/	/	/	1.1	/	-4.6	1	0.68
COc1cccc(NS(=O)(=O)c2ccc3c(c2)N(C(C)=O)CCO3)c1	-4	-11	-6	-1.9	3.1	i	-0.3	-2	0.63
COc1ccc(C(=O)C2CCCN(C3Cc4ccccc4C3)C2)cc1OC (stereo unspecified)	-2	/	/	/	1.0	i	1.2	-6	0.67

A draw from above in order of molecular weight, low to high.
Structure	ALR inh	Ecoli rRNA inh	Ecoli rRNA inh OD600	Ecoli rRNA inh RFP	UCH37 inh	FGF22 binding	HNF4A DNA FP	B2AR ag	E coli growth
O=C(OCC1COc2ccccc2O1)c1ccccc1F (stereo unspecified)	2	-20*	-15*	0.5*	-1.3	i	-1.2	5	0.66
O=C(Cn1c(CO)nc2ccccc21)NCCc1ccc(F)cc1	/	-19*	-7.5*	1.9*	0.3	i	0.8	-4	0.69
Cc1nc(NC(=O)c2oc3ccccc3c2C)sc1C(=O)N(C)C	7	/	/	/	3.9	/	-1.5	-4	0.67
COc1ccc(C(=O)C2CCCN(C3Cc4ccccc4C3)C2)cc1OC (stereo unspecified)	-2	/	/	/	1.0	i	1.2	-6	0.67
CCc1ccc(CN2CCC(Oc3ccc(C(=O)N4CCCCC4)cc3)CC2)cc1	-6	7	1	-2.8	0.0	i	-2.2	67*	0.69
C[C@@H]1CCCCO[C@H](CN(C)Cc2ccc(C(=O)O)cc2)[C@@H](C)CN([C@H](C)CO)C(=O)c2cc(NC(=O)CCC(F)(F)F)ccc2O1	/	-1	2	2.1	/	i	1.2	/	/

Following part.
Structure	ALR inh	Ecoli rRNA inh	Ecoli rRNA inh OD600	Ecoli rRNA inh RFP	UCH37 inh	FGF22 binding	HNF4A DNA FP	B2AR ag	E coli growth
CCCCNC(=O)C1(C)CCN1C(=O)c1ccc(F)cc1Cl (stereo unspecified)	/	13	9	3.0	/	i	-2.6	/	/
CC(C)C[C@H]1CNC(=S)N1C[C@H]1CCCN1C[C@H](Cc1ccccc1)N1C[C@H](CC(C)C)N(CCc2ccccc2)C1=S	/	7	12	16	/	i	1.8	/	/
COc1ccc(C2=NN(C(=O)c3ccccc3)C(c3ccc(OC)c(OC)c3)C2)cc1OC (stereo unspecified)	/	-7	-18	1.8	0.7	i	2.0	2	0.66
O=C(Cc1ccccc1)Nc1ccnn1C1CCN(Cc2nccs2)CC1	-6	5	6	-0.5	5.9	i	-1.7	-7	0.67
Cc1ccc2nc(SCC(=O)NCc3ccc(F)cc3)[nH]c2c1	-5	-13	-14	-4.4	4.2	i	3.6	-6	0.67
O=C(Nc1cc(S(=O)(=O)N2CCCCC2)ccc1N1CCOCC1)c1ccc(F)cc1	/	-5	-7	3.9	1.7	i	-1.2	9	0.67
O=C(CCCOc1ccccc1)Nc1ccc2c(c1)OCCO2	-4	/	/	/	0.2	/	2.3	3	0.67
OCCN1CCN(Cc2nc(-c3cccc(Cl)c3)no2)CC1	-5	/	/	/	-0.2	/	0.3	4	0.7
O=C(Nc1ccncc1)c1ccccc1F	-4	/	/	/	-0.4	/	-1.6	3	0.75
CN(Cc1ccccc1)C(=O)c1csc([C@H]2C[C@H](O)[C@@H](CO)O2)n1	/	6	18	6.9	/	i	0.7	/	/
COc1ccccc1NC(=O)c1nn(-c2ccc(Cl)cc2)ccc1=O	4	/	/	/	0.1	/	-3.1	-21	0.8
COC(=O)c1[nH]c2cc(OC)c(OC)cc2c1/C=N/Nc1ccccc1	56	-19*	-9.6*	2.0*	/	/	5.6	15	/
COc1ccc(CN2C(=O)c3cccnc3C2=O)cc1S(=O)(=O)N(C)c1ccc(C)cc1	12	2	-5	-0.4	0.1	/	-3.8	-9	0.64
O=C1c2ccccc2C(=O)N1CCOc1ccccc1Br	-10	-30	-26	-0.2	5.0	i	1.5	-6	0.71
O=C(CSc1nnnn1C1CCCCC1)Nc1ccc2c(c1)OCO2	0	/	/	/	1.8	/	4.7	-5	0.73
O=c1cc(-c2cccc(Br)c2)nc(-c2ccccc2F)o1	2	/	/	/	1.4	/	-1.3	-10	0.72
O=C(CSc1nnc(-c2ccco2)n1Cc1ccccc1)OC1CCCCC1	35	/	/	/	5.8	/	-0.1	4	0.65
COc1ccc(CC(=O)Nc2ccc(-c3cn4cccc(C)c4n3)cc2)cc1OC	49	/	/	/	-4.0	/	3.2	-3	0.69
CCc1nc(C)cn1S(=O)(=O)c1cc(C)c(OC)c(C)c1C	2	/	/	/	-0.7	/	-2.5	3	0.73
Cc1ccc(CNc2nnnn2C)cc1	-6	8	4	9.1	1.2	i	2.7	-2	0.71
CNC(=O)CO/N=C/c1ccc(N(C)C)cc1	12	7	9	1.5	/	i	-3.7	7	/
CCOc1ccc(NC(=O)c2ccc(N3CC4CC(C3)c3cccc(=O)n3C4)c(NC(=O)c3ccncc3)c2)cc1 (stereo unspecified)	-2	1	2	1.0	1.3	i	1.3	1	0.7
CCOC(=O)c1cnc(SCCN2CCOCC2)nc1N	-3	16	10	1.5	0.9	i	-0.3	2	0.7
Cc1ccccc1-c1nc2sc(C)c(C)c2c(=O)o1	-5	4	9	-1.8	5.6	i	0.9	5	0.69

Remaining list, next part:
Sequence of screens – ALR inh | Ecoli rRNA inh | Ecoli rRNA inh OD600 | Ecoli rRNA inh RFP | UCH37 inh | FGF22 binding | HNF4A DNA FP | B2AR ag | E coli growth
CSCC[C@H](NC(=O)[C@H](Cc1ccccc1)n1c(=O)[nH]c2ccccc2c1=O)C(=O)N1CCC(C(=O)O)CC1
  / | / | / | / | 0.2 | i | 3.0 | -1 | 0.73
O=C(COC(=O)CCc1ccccc1)Nc1ncc(Cl)cc1Cl
  -7 | / | / | / | 1.3 | / | -1.8 | 4 | 0.66
COC(=O)c1ccc(C2CC(=O)Nc3cc(OC)c(OC)c(OC)c32)cc1 (stereo unspecified)
  1 | / | / | / | 1.5 | / | 5.9 | -2 | 0.73
CCCNC(=O)c1noc2c1CCc1cc(OC)ccc1-2
  -13 | -28* | -14* | -6.2* | 1.8 | i | 5.3 | 2 | 0.71
CCCc1c(O)c2ccccc2n(-c2ccccc2)c1=O
  / | / | / | / | -7.9 | / | 0.4 | -3 | 0.74
Cc1nc(C(=O)NC2CC2)sc1C1(C)CC(c2ccccc2)=NO1 (stereo unspecified)
  / | -5 | -6 | 0.0 | -0.4 | i | -0.9 | -10 | 0.66
O=C(N/N=C/c1cccc(O)c1)c1ccccc1O
  42 | -1 | 1 | -2.6 | / | i | -4.3 | 9 | /
COC(=O)c1ccc(OC(=O)c2ccco2)cc1
  2 | / | / | / | / | / | 2.1 | 5 | /
COc1ccc(CCNC(=O)Cn2nnc(-c3ccccc3F)n2)cc1OC
  2 | 4 | 8 | -3.5 | -0.7 | i | 2.9 | 3 | 0.69
CCOC(=O)c1c(C(F)(F)C(F)(F)C(F)(F)C(F)(F)F)n[nH]c1C
  -1 | / | / | / | 0.8 | / | 11 | -18 | 0.7
O=C(COC(=O)Cc1c[nH]c2ccccc12)Nc1ccccc1
  / | -35 | -44 | -7.7 | 1.8 | i | -2.2 | 7 | 0.63
O=C(/C=C/N1CCOCC1)c1cc2ccccc2o1
  5 | / | / | / | 13 | / | -0.7 | -5 | 0.77
Cc1cc(C)n(-c2nc3ccccc3n3cnnc23)n1
  -4 | / | / | / | 5.0 | / | 0.7 | -10 | 0.63
Cc1ccc(-c2nc3ccc(Cl)cn3c2Cc2ccccc2)cc1
  / | -17 | -61 | 7.3 | / | i | -1.8 | / | /
N#Cc1ccc(OCC(=O)Nc2nc(-c3ccccn3)cs2)cc1
  / | -22 | -45 | -8.3 | / | i | -4.8 | / | /
O=C(c1cc2cc(Br)ccc2oc1=O)N1CCN(c2ccccn2)CC1
  -4 | / | / | / | 4.2 | / | -1.2 | -21 | 0.62
CCn1c(SCC(=O)Nc2ccc3c(c2)OCCO3)nnc1-c1ccco1
  -38 | -5 | -9 | -2.3 | -0.9 | i | -0.4 | -14 | 0.7
CCOc1c2ccc(C(=O)NCCCCc3ccccc3)cc2nn1C
  -16 | -18 | -24 | -3.0 | -74 | i | 1.3 | 0 | 0.64
CC(=O)c1cc2c(cc1NS(=O)(=O)c1ccccc1C)OCO2
  3 | -19 | -12 | 2.0 | 4.8 | i | / | / | 0.7
Cc1c(/C=N\NC(=O)C2COc3ccc(C(C)(C)C)cc3O2)c2ccccc2n1C (stereo unspecified)
  -1 | / | / | / | / | / | 1.1 | 12 | /

High-throughput results: PubChem BioAssay, several laboratories
